# Bioassay records (PubChem)
# KCNQ2 inh: KCNQ2 channel blockers in CHO-K1 cells – cell-based, FluxOR thallium flux, B-score, primary screen (AID 2156); O88943; 20 min; active compounds read low; only compounds with negative scores are shown here; some inactives read as strong as hits; B-score at 10 µM; 1.1% of 310,000 active;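 active = fluorescence ratio B-score at most minus 3 library SDs, with starting brightness B-score within 2 library SDs, cut at about -5.5 in these data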
# Target sequence (O88943 whole entry, looked up): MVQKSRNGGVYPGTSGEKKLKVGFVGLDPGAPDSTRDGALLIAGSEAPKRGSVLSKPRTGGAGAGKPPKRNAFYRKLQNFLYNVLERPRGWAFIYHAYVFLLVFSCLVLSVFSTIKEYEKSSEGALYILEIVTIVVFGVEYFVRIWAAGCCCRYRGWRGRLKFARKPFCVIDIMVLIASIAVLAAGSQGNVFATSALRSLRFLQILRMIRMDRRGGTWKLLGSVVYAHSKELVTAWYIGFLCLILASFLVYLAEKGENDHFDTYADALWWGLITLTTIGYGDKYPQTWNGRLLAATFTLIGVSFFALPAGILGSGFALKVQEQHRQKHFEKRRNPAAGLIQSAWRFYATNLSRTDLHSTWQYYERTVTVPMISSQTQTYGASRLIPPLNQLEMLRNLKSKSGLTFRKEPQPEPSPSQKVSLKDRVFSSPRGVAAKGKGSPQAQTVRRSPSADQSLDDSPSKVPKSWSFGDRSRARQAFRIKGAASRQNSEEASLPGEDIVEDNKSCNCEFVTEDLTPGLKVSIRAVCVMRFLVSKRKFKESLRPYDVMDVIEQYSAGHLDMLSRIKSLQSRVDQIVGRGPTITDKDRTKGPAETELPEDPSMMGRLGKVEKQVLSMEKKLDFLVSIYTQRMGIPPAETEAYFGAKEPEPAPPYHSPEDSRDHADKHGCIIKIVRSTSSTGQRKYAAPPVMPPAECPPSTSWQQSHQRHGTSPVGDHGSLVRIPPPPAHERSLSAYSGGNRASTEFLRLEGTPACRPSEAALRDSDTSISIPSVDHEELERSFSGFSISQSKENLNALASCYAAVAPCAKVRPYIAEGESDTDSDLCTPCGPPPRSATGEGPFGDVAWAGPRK
# KCNQ2 inh baseline: also measured in KCNQ2 inh; calls as there; B-score; measured here: initial fluorescence intensity artifact check;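 brightness before thallium and not channel activity; 0 = typical well and far values either way flag optical interference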
# * marks the source's active call; other numbers are inactive results; i = inactive. Some of the compounds tested, so the mix of outcomes need not match the whole.
# Values in the order – KCNQ2 inh | KCNQ2 inh baseline
COCCCn1c(C(=O)N2CC(C)OC(C)C2)cc2c(=O)n3cccc(C)c3nc21 (stereo unspecified)
    i | 0.7
C=CCn1c(SCc2nc3c(c(=O)[nH]c(=O)n3CCCC)n2CCC)nnc1-c1ccccc1
    i | -0.55
O=C(c1cc2ccccc2o1)N1CCN(Cc2ccccc2)CC1
    i | 0.65
CC(C)c1ccccc1NC(=O)CNCCc1ccc(C(F)(F)F)cc1
    i | 1.87
O=C(CC1C(=O)NCCN1Cc1ccccc1C(F)(F)F)NCCN1CCOCC1 (stereo unspecified)
    i | 0.01
O=C(Oc1ccc2c(=O)c(Oc3ccc4ccccc4c3)coc2c1)c1cccnc1
    i | 0.44
O=C(NC1CC1)C1=C[C@@H](c2ccc(C(F)(F)F)cc2)C[C@@H](OCc2ccc(CO)cc2)O1
    i | -0.8
CCOC(=O)c1c(-c2ccc(OC)cc2)nc2nonc2c1N
    i | 1.49
Cc1ccc(S(=O)(=O)NC(=O)N2CCN(Cc3c(F)cccc3Cl)CC2)cc1
    i | -0.33
CC(=O)N1CCCc2cc(S(=O)(=O)CCC(=O)N3CCN(c4ccccc4)CC3)ccc21
    i | 1.08

# Record cards (already shown):
# `C=CCn1c(SCc2nc3c(c(=O)[nH]c(=O)n3CCCC)n2CCC)nnc1-c1ccccc1` is listed as KCNQ2 inh = i; KCNQ2 inh baseline = -0.55
# `CCOC(=O)c1c(-c2ccc(OC)cc2)nc2nonc2c1N` is listed as KCNQ2 inh = i; KCNQ2 inh baseline = 1.49

# Later entries.
# Values in the order – KCNQ2 inh | KCNQ2 inh baseline
CCOC(=O)N1CCN(c2nc(C)cc(C(F)(F)F)n2)CC1
    i | -0.61
Cc1cccc(Nc2nc(-c3ccc(F)cc3)cs2)n1
    i | -0.46
CC(C)(C)OC(=O)NNC(=O)c1cccs1
    i | -0.75
COc1ccccc1CN1CC(C(=O)N2CCOCC2)CCC1=O (stereo unspecified)
    i | 1.15
O=C(NCCc1ccccc1)C1CCCN1S(=O)(=O)c1ccc(F)cc1 (stereo unspecified)
    i | 1.52
O=C1Nc2ccc(Cl)cc2/C1=C/C1CC=CCC1 (stereo unspecified)
    i | 1.4
CC(Sc1nnc(-c2ccccc2F)n1C1CC1)C(=O)NC(N)=O (stereo unspecified)
    i | 0.33
CCN1CCN(CCCNC(=O)CS(=O)(=O)Cc2nc(-c3ccccc3C)oc2C)CC1
    i | 1.63
COc1ccc(OC)c(C(c2nnnn2C(C)(C)C)N2CCc3ccccc3C2)c1 (stereo unspecified)
    i | -0.02
CCN(CC(=O)Nc1ccc(NC(C)=O)cc1)C(=O)CSCc1c(C)noc1C
    i | -1.05
O=C(O)c1ccc(-c2nnc(-c3ccccc3)o2)cc1
    i | 0.11
CN1/C(=C/C(=O)CSc2ccccc2C(=O)O)C(C)(C)c2ccccc21
    i | 3.38
Cc1cc(C)n(CCC(=O)N/N=C/c2ccc(O)cc2)n1
    i | 1.87
c1ccc(C2=NNC(=NCc3ccc4c(c3)OCO4)SC2)cc1
    i | -0.92
Cc1ccc(S(=O)(=O)c2nc(S(C)(=O)=O)sc2N2CCOCC2)cc1
    i | -1.04
CC(C)C(c1nnnn1Cc1ccccc1)N(CCCO)Cc1cc2cc3c(cc2[nH]c1=O)OCO3 (stereo unspecified)
    i | -0.74
Cc1ccc(CNc2cc(C(=O)O)ccc2C)s1
    i | 0.65
Cc1ccc(NS(=O)(=O)c2cc(C(=O)OCC(=O)NCC3CCCO3)ccc2C)cc1 (stereo unspecified)
    i | -0.03
Fc1ccc(N2CN(Cc3cccnc3)CNC2=S)cc1
    i | -0.23
Cc1c(N2C(=O)CSC23C(=O)Nc2ccccc23)c(=O)n(-c2ccccc2)n1C (stereo unspecified)
    i | 1.44
CCOc1ccc(Cc2n[nH]c(=S)n2Cc2ccccc2)cc1
    i | -1.18
O=c1ccc(Cc2ccc(Cl)cc2)n[nH]1
    i | -1
CN(CC(O)CON=C1c2ccccc2-c2ccccc21)S(=O)(=O)c1ccc(Br)cc1 (stereo unspecified)
    i | -0.92
Cc1ccc(S(=O)(=O)N(Cc2cc3cccc(C)c3[nH]c2=O)c2ccccc2)cc1
    i | -0.35
COc1ccc(NC(=S)N/N=C/c2cccn2Cc2ccccc2F)cc1
    i | 1.05
NC12CC3CC(C1)CC(O)(C3)C2
    i | 5.23
CCn1cc(C(=O)NCC(OC)OC)c(=O)c2cc(S(=O)(=O)N3CCCC3)ccc21
    i | -0.23
CC(=O)Nc1ccccc1NC(=O)C(F)(F)F
    i | 0.53
CCOC(=O)C1=C(COC(=O)CCNS(=O)(=O)c2ccc(NC(C)=O)cc2)NC(=O)NC1C (stereo unspecified)
    i | 1.26
O=C(COc1cccc2c1CCN(Cc1ccccc1)C2=O)N1CCCCC1
    i | -0.02
COc1ccc(N(CC(=O)NCCSc2ccccn2)S(C)(=O)=O)cc1
    i | 1.16
COc1cc(CNC(=O)c2ccccc2NC(=O)C2=C(C)OCCS2)cc(OC)c1OC
    i | 0.05
Cc1ccc(NS(=O)(=O)c2ccc(C(=O)N3CCN(S(=O)(=O)c4ccccc4)CC3)cc2)cc1
    i | 0.26
O=C(Cc1ccc(F)cc1)N1CCC(CC2CC(c3cccc(Br)c3)=NO2)(C(=O)NCC2CCCCC2)CC1 (stereo unspecified)
    i | -1.88
COc1ccc(-c2cc(C(F)F)n3ncc(C(=O)Nc4cccc(S(=O)(=O)N5CCOCC5)c4)c3n2)cc1
    i | 0.87
COc1ccc(C(=O)/C(C#N)=N/Nc2cccc([N+](=O)[O-])c2)cc1
    i | -0.34
Cc1cccc(NC(=S)N2CCN(S(=O)(=O)c3cccc(F)c3)CC2)c1
    i | 0.65
O=C(CSc1nnc(-c2cccnc2)n1Cc1ccco1)c1ccc(Cl)c(Cl)c1
    i | 1.47
Cn1cc(C(=O)N/N=C/C2=C(N3CCOCC3)C(=C/c3ccc([N+](=O)[O-])cc3)/CC2)ccc1=O
    i | 0.52
COc1cc(CN2CCc3ccc(NC(=O)CCc4ccccc4OC)cc3C2)ccc1O
    i | -0.58
O=C(O)c1cc2ncc(-c3[nH]ncc3[N+](=O)[O-])cn2n1
    i | -0.06
COc1ccccc1C(=O)OCn1nnc2ccccc2c1=O
    i | 0.02
O=C(COc1ccccc1F)N1CCN(S(=O)(=O)/C=C/c2ccccc2)CC1
    i | 1.29
O=C(NCC1CCN(c2ccc(S(=O)(=O)N3CCOCC3)cc2)CC1)c1cccc(Cl)c1
    i | 0.44
O=[N+]([O-])c1ccc(OCC(O)CN(C2CCCCC2)C2CCCCC2)cc1 (stereo unspecified)
    i | 1.84
COc1ccc(CC(=O)Oc2ccc(F)cc2)cc1
    i | 1.5
COc1ccc(CN2C(=O)c3c(c(C)n(C)c3C)C2C(=O)NC2CCC(C)CC2)cc1 (stereo unspecified)
    i | 0.01
Nc1c(-c2ccccc2)sc2ccc3ccccc3[n+]12
    i | 1.59
CCOC(=O)C(Oc1ccc2c(-c3ccc(OC)cc3)cc(=O)oc2c1C)c1ccccc1 (stereo unspecified)
    i | -0.2
CC(=O)c1cc(CN2CCC(n3nccc3NC(=O)c3ccccc3)CC2)cs1
    i | -0.74

# Continued (7 carried over from the part before).
# Values in the order – KCNQ2 inh | KCNQ2 inh baseline
O=C(NCC1CCN(c2ccc(S(=O)(=O)N3CCOCC3)cc2)CC1)c1cccc(Cl)c1
    i | 0.44
O=[N+]([O-])c1ccc(OCC(O)CN(C2CCCCC2)C2CCCCC2)cc1 (stereo unspecified)
    i | 1.84
COc1ccc(CC(=O)Oc2ccc(F)cc2)cc1
    i | 1.5
COc1ccc(CN2C(=O)c3c(c(C)n(C)c3C)C2C(=O)NC2CCC(C)CC2)cc1 (stereo unspecified)
    i | 0.01
Nc1c(-c2ccccc2)sc2ccc3ccccc3[n+]12
    i | 1.59
CCOC(=O)C(Oc1ccc2c(-c3ccc(OC)cc3)cc(=O)oc2c1C)c1ccccc1 (stereo unspecified)
    i | -0.2
CC(=O)c1cc(CN2CCC(n3nccc3NC(=O)c3ccccc3)CC2)cs1
    i | -0.74
CN(C)C(=O)COc1ncnc2scc(-c3ccc(F)cc3)c12
    i | -0.16
Cc1ccc(CNC(=O)/C=C/C(=O)O)cc1
    i | 0.82
Fc1cc(NC(=S)NCc2ccc(CNC(=S)Nc3ccc(Cl)c(F)c3)cc2)ccc1Cl
    i | 1.12
COc1ccccc1/C=N/NC(=O)CSc1cc(C)nc2ccccc12
    i | -2.29
CN(Cc1cccnc1)C(=O)CC1C(=O)NCCN1Cc1ccc(-c2ccccc2)cc1 (stereo unspecified)
    i | 0.49
O=C1C(=O)N(Cc2cccc([N+](=O)[O-])c2)c2ccccc21
    i | 0.95
COc1ccccc1CN(C)C(=O)C1(c2ccc(Cl)cc2)CC1
    i | -0.94
COc1ccc(NS(=O)(=O)c2ccc(Cl)c(C(=O)O)c2)cc1S(=O)(=O)N1CCCCC1
    i | -0.05
COC(=O)CSc1nccc(-c2ccc(F)cc2)c1C#N
    i | 0.07
CCn1c(=NC(=O)CSC(C)=O)sc2ccccc21
    i | -0.25
CCOc1ccc(-n2c(C)cc(/C=N/Nc3nc(C)cc(=O)[nH]3)c2C)cc1
    i | 0.34
C=C1CSc2nc(=O)c3c(C)c(C)sc3n21
    i | -1.26
N#Cc1c(N2CCOCC2)nsc1-c1ccccc1
    i | -0.25
C/C(=N/Oc1nc(C)cc(C)n1)c1ccc(F)cc1
    i | -1.63
Cc1ccc(C(c2nnnn2C2CCCC2)N2CCN(c3nc4ccccc4s3)CC2)cc1 (stereo unspecified)
    -6.38* | 1.37*
Cc1sc2ncnc(SCC(=O)NC3CCCC3)c2c1C
    i | -0.24
Clc1ccc(-c2nnc(C3CCCCC3)o2)cc1
    i | 0.13
O=C(O)CCCC(=O)Nc1ccc(-n2ccc(C(F)(F)F)n2)cc1
    i | -1.13
CCC(C)NC(=O)CCC(=O)NNc1nc2ccccc2c2nc(C)nn12 (stereo unspecified)
    i | 2.65
O=S(=O)(c1cccc(C(F)(F)F)c1)N1CCC(O)(c2cccnc2)CC1
    i | -0.01
COc1ccc(C(=O)C2CCCN(C(=O)CCc3scnc3C)C2)c(C)c1 (stereo unspecified)
    i | 0.18
COC/C=C/C1=CC2=CC(=O)C(C)(OC(=O)c3cnc4ccccc4n3)C(=O)C2=CN1c1ccc(OC)cc1 (stereo unspecified)
    i | 1.61
Cc1ccccc1Cn1cc(NC(=O)COc2ccccc2)cn1
    i | 1.26
COC(=O)c1cccc(-n2[nH]nnc2=S)c1
    i | 2.05
Cc1ccc2c(c1)N(C(C)C(=O)NCc1ccc3c(c1)OCO3)C(=O)CO2 (stereo unspecified)
    i | 0.96
Nc1cc(S(=O)(=O)N2CCCCC2)ccc1Oc1ccccc1
    i | 0.55
CC(=O)c1ccc(C(=O)N2CCCC(C(=O)c3ccc(Cl)cc3)C2)s1 (stereo unspecified)
    i | -0.75
CCOc1ccc2oc(C(=O)N(CC)CC(=O)Nc3c(F)cccc3F)c(C)c2c1
    i | -0.54
Cc1cc(C)n(CCCN2C(=O)c3cccc4cccc(c34)C2=O)n1
    i | 1.59
CCCCSc1nc2sc3c(c2c(=O)n1-c1ccc(C)cc1)CCN(C)C3
    i | -0.12
CN1CCN(C2=C(Cl)C(=O)N(c3ccc(Cl)c(Cl)c3)C2=O)CC1
    i | -0.25
O=C(CSc1nnc(CNC(=O)c2c(F)cccc2F)o1)Nc1ccc2c(c1)OCO2
    i | 0.44
Cc1ccc(N2CCCn3c2cc(C)c(C#N)c3=O)cc1C
    i | -1.16
Cc1ccc(OCCn2cccn2)c(C)c1
    i | 0.07
OC[C@H]1O[C@H](OCc2ccccc2)[C@H](O[C@@H]2OC[C@@H](O)[C@H](O)[C@H]2O)[C@@H](O)[C@@H]1O
    i | 0.62
CCn1c(SCC(=O)Nc2ccc(OC)c(OC)c2)nnc1-c1cccs1
    i | -0.96
CCSc1nc(CC)c2c(c1C#N)CCCC2
    i | 1.66
CCOC(=O)CC1(NC(=O)C2CCC(=O)N(CCc3ccccc3)C2)CCCCC1 (stereo unspecified)
    -6.35* | -1.19*
Cc1ccc(C(=O)CSc2ncnc3sc4c(c23)CCCC4)cc1
    i | 1.54
O=C(c1ccc(COc2ccccc2Cl)o1)N1CCOCC1
    i | 0.91
Cc1cs/c(=N\N=C\c2ccc(O)cc2)n1Cc1ccco1
    i | -0.38
O=C(Nc1ncc(Cc2cc(Cl)ccc2Cl)s1)c1ccc([N+](=O)[O-])cc1
    i | -0.5
O=C(CC(CC(=O)c1ccccc1)C(=O)O)c1ccccc1
    i | 0.01
COc1ccc(S(=O)(=O)N2CCN(Cc3c[nH]c4ccccc34)CC2)cc1
    i | 0.06
CC(NCc1ccc(OCc2ccc(Cl)cc2)cc1)C(O)c1ccccc1 (stereo unspecified)
    i | -1.29
CCCC(C(=O)NC(C)(C)CC)N(Cc1ccco1)C(=O)CNS(=O)(=O)c1ccccc1 (stereo unspecified)
    i | 0.18
CS(=O)(=O)c1ccc(Cl)c(C(=O)NCC2CCCCC2)c1
    i | -1.6
CCOC(=O)c1c(-c2ccc(C)cc2)csc1NC(=O)c1ccc(N2C(=O)CCC2=O)cc1
    i | 2.41
N#C/C(=C\c1ccc2c(c1)OCCO2)C(=O)Nc1ccc(C(=O)O)cc1
    i | 0.74
COc1ccccc1-c1n[nH]c(=S)n1-c1ccccc1
    i | -0.32

# (next part)
# Values in the order – KCNQ2 inh | KCNQ2 inh baseline
CCn1c(/C=C/c2c(C)n(CC)c3ccccc23)nc2ccccc2c1=O
    i | 0.46
CC(C)(C)n1nnnc1C(c1cccnc1)N(Cc1ccccc1)Cc1cccs1 (stereo unspecified)
    i | 1.33
COc1cc(C(=O)NC(=S)Nc2ccc([N+](=O)[O-])cc2C)cc(OC)c1OC
    i | -0.23
O=C(N[C@@H](Cc1ccccc1)C(=O)O)c1cccs1
    i | -0.85
COc1ccc(-n2c(C)cc(C(=O)CN3CCC(C)CC3)c2C)cc1
    i | 0.94
